FGF22 binding: binders of recombinant human FGF22 by thermal shift; AID 651658; hit rate 1.5% among 340,000; calls only at 9.99 µM; SYPRO orange fluorescence; percent of sucrose octasulfate shift, DMSO zero;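 active = melting point raised past a set limit in the mean and every replicate; three in four hits are not shown here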
Target sequence (Q9HCT0 whole entry, looked up): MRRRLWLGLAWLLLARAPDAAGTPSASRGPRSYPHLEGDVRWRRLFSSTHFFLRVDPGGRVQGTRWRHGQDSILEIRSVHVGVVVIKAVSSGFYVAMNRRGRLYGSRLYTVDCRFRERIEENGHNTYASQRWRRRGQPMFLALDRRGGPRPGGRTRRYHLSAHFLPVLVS
rRNA inh HTS: inhibitors of bacterial rRNA selective over humanized ribosomes. hit rate 1.6% among 350,000. E. coli WT GFP vs humanized-ribosome RFP mutants, fluorescence, 24 h; stronger effect = lower value; DMSO median 0, no signal -100. GFP signal change (wild-type ribosome), % (no concentration beside the values). AID 720706;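 active = significant combined selectivity score with lowered wild-type GFP, culture density cut under 30%, mutant RFP and density less affected; inactive = any of these conditions unmet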; also: one replicate is shown; some compounds called inactive have numbers as strong as hits
MLL AF4-AF9 inh: MLL-AF4/AF9 protein interaction inhibition; P42568; AlphaScreen, biotin-AF4 peptide binding to FLAG-AF9; inhibition, % at 10 µM; hit rate 0.47% among 350,000; AID 651704;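 active = every replicate reaching a set inhibition limit, whatever the replicate mean, cut at about 25% in these data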;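 also: 0% = plate neutral control median and 100% = total signal loss; the record names both 10 and 1 µM as test concentration; the first replicate is given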
Target sequence (P42568 whole entry, looked up): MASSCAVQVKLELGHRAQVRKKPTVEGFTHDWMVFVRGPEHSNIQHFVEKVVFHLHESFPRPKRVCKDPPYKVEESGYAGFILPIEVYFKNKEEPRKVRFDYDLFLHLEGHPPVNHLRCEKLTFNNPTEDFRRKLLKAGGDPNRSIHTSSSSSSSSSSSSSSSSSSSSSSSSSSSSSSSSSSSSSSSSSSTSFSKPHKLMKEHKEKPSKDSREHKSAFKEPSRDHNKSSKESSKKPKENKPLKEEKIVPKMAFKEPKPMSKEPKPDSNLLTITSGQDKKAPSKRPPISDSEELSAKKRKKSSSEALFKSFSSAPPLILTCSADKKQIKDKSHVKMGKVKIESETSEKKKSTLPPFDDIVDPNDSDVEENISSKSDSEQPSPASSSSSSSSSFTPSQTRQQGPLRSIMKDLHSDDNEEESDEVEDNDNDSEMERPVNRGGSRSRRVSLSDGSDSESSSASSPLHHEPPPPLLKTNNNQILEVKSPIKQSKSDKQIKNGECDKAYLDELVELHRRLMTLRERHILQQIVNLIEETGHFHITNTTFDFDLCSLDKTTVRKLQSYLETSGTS
rRNA inh HTS OD600: further read-out of rRNA inh HTS, marked with its call; OD600 change, %; measured here: OD600 growth;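 optical density of the mix in the first replicate; 0 = DMSO median and -100 = no signal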
rRNA inh HTS RFP: second read-out of rRNA inh HTS, no call of its own (marks repeat the call); RFP signal change, %; measured here: RFP humanized mutant strains;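 first replicate; 0 = DMSO median and -100 = no signal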
Numbers without * were called inactive. A portion of the library. The share of hits here may be higher or lower than overall.

`Cc1noc(C)c1NC(=O)Nc1cccc2c1O[C@H](CN(C)S(=O)(=O)c1ccc(Cl)cc1)[C@H](C)CN([C@@H](C)CO)C2=O` gave FGF22 binding inactive, rRNA inh HTS -2, MLL AF4-AF9 inh 0.4, rRNA inh HTS OD600 -1 and rRNA inh HTS RFP -1.0.
Cc1ccc(S(=O)(=O)NC(=O)C2(C)CCN2C(=O)C2CCCCC2)nc1 (stereo not given) was read as FGF22 binding inactive, rRNA inh HTS 23, MLL AF4-AF9 inh -1.0, rRNA inh HTS OD600 24 and rRNA inh HTS RFP 1.5.
`C[C@H](CO)N1C[C@H](C)[C@@H](CN(C)C(=O)C2CCC2)Oc2cc(C3=CCCC3)ccc2S1(=O)=O` gave FGF22 binding inactive, rRNA inh HTS -9, MLL AF4-AF9 inh -5.9, rRNA inh HTS OD600 -9 and rRNA inh HTS RFP 1.3.
For COCC#Cc1cnc2c(c1)C(=O)N([C@@H](C)CO)C[C@@H](C)[C@@H](CN(C)S(=O)(=O)c1cn(C)cn1)O2 the results were FGF22 binding inactive, rRNA inh HTS 3, MLL AF4-AF9 inh -2.8, rRNA inh HTS OD600 12 and rRNA inh HTS RFP -2.5.
`OC[C@@H](O)C(O)[C@@H](O)CO` (stereo not given in full) gave FGF22 binding inactive, rRNA inh HTS 2, MLL AF4-AF9 inh -4.0, rRNA inh HTS OD600 5 and rRNA inh HTS RFP 3.3.
Screening c1coc(-c2nc3c4ccccc4ccn3c2Cc2ccsc2)c1 returned FGF22 binding inactive, rRNA inh HTS -1, MLL AF4-AF9 inh 8.0, rRNA inh HTS OD600 -2 and rRNA inh HTS RFP 11.
For CC(=O)N(C)C[C@H]1Oc2ncc(/C=C/c3ccccc3)cc2C(=O)N([C@@H](C)CO)C[C@@H]1C the results were FGF22 binding inactive, rRNA inh HTS 2, MLL AF4-AF9 inh 1.1, rRNA inh HTS OD600 -2 and rRNA inh HTS RFP -1.5.
For COCc1cn(CC[C@H]2CC[C@H](NC(=O)Nc3ccccc3)[C@H](CO)O2)nn1 the results were FGF22 binding inactive, rRNA inh HTS 2, MLL AF4-AF9 inh -2.9, rRNA inh HTS OD600 8 and rRNA inh HTS RFP -1.1.
Screening CC(C)C[C@H]1COc2cc(N(C)CCO)ccc2S(=O)(=O)N1 returned FGF22 binding inactive, rRNA inh HTS 9, MLL AF4-AF9 inh -3.1, rRNA inh HTS OD600 9 and rRNA inh HTS RFP -0.3.
`Cc1c(C(=O)Nc2cccc(C(F)(F)F)c2)oc2ccc(S(=O)(=O)N3CCOCC3)cc12` gave FGF22 binding inactive, rRNA inh HTS 3, MLL AF4-AF9 inh -2.9, rRNA inh HTS OD600 9 and rRNA inh HTS RFP -0.5.
`C[C@@H](NC(=O)[C@H]1[C@H](CO)[C@H]2Cn3c(ccc(C4=CCCCC4)c3=O)[C@@H]1N2)c1ccccc1` gave FGF22 binding inactive, rRNA inh HTS 0, MLL AF4-AF9 inh 1.7, rRNA inh HTS OD600 -3 and rRNA inh HTS RFP 1.0.
For C[C@@H]1CN([C@H](C)CO)C(=O)c2cccc(NC(=O)Nc3ccc(C(F)(F)F)cc3)c2O[C@@H]1CN(C)Cc1ccc(C(F)(F)F)cc1 the results were FGF22 binding inactive, rRNA inh HTS 0, MLL AF4-AF9 inh 0.8, rRNA inh HTS OD600 -8 and rRNA inh HTS RFP -0.9.
`Cn1cccc1C(=O)NCC1COc2ccccc2O1` (stereo not given) gave FGF22 binding inactive, rRNA inh HTS 8, MLL AF4-AF9 inh 3.1, rRNA inh HTS OD600 8 and rRNA inh HTS RFP 0.2.
`O=C(C[C@H]1CC[C@@H]2[C@H](COC[C@H](O)CN2C(=O)c2cccnc2)O1)NCc1ccc(Cl)cc1` gave FGF22 binding inactive, rRNA inh HTS -2, MLL AF4-AF9 inh -2.0, rRNA inh HTS OD600 -2 and rRNA inh HTS RFP -1.3.
Screening Cc1cccc(-c2ccc([C@@H]3[C@@H](CO)N4CCCCN(Cc5ccncc5)C[C@@H]34)cc2)c1 returned FGF22 binding inactive, rRNA inh HTS -1, MLL AF4-AF9 inh -2.1, rRNA inh HTS OD600 1 and rRNA inh HTS RFP 9.6.
Screening C[C@@H]1CCCCO[C@H](CN(C)S(C)(=O)=O)[C@@H](C)CN([C@H](C)CO)C(=O)c2cc(NS(=O)(=O)c3cccs3)ccc2O1 returned FGF22 binding inactive, rRNA inh HTS -1, MLL AF4-AF9 inh -3.1, rRNA inh HTS OD600 12 and rRNA inh HTS RFP -1.3.
`COc1ccc(NC(=O)N(C)C[C@@H]2Oc3c(NC(=O)Nc4ccc(F)cc4)cccc3C(=O)N([C@H](C)CO)C[C@H]2C)cc1` gave FGF22 binding inactive, rRNA inh HTS 3, MLL AF4-AF9 inh -2.6, rRNA inh HTS OD600 9 and rRNA inh HTS RFP -1.5.
`CCc1c(-c2cccc(Br)c2)ncn1CCc1ccccc1OC` gave FGF22 binding inactive, rRNA inh HTS -55, MLL AF4-AF9 inh 0.2, rRNA inh HTS OD600 -80 and rRNA inh HTS RFP -16.
O=C(CN1C(=O)C2CC=CCC2C1=O)Nc1ccc(F)c(Cl)c1 (stereo not given) was read as FGF22 binding inactive, rRNA inh HTS -8, MLL AF4-AF9 inh -0.2, rRNA inh HTS OD600 -7 and rRNA inh HTS RFP 4.6.
Screening COCC(=O)N(C)C[C@H]1Oc2ncc(C#Cc3cccnc3)cc2C(=O)N([C@H](C)CO)C[C@H]1C returned FGF22 binding inactive, rRNA inh HTS 2, MLL AF4-AF9 inh -6.2, rRNA inh HTS OD600 6 and rRNA inh HTS RFP -2.4.
For CCCC(=O)Nc1ccc2c(c1)OC[C@H](C)N(C(=O)c1cnccn1)C[C@H](C)[C@@H](OC)CN(C)C2=O the results were FGF22 binding inactive, rRNA inh HTS 1, MLL AF4-AF9 inh -4.9, rRNA inh HTS OD600 -5 and rRNA inh HTS RFP -0.8.
`C=CCNc1nc2cc(-c3cccc(NC(C)=O)c3)sc2c(=O)n1C` gave FGF22 binding inactive, rRNA inh HTS 5, MLL AF4-AF9 inh -0.3, rRNA inh HTS OD600 4 and rRNA inh HTS RFP -3.2.
Screening CN(C(=O)CN1CCN(c2cc(-c3cccc4oc5ccccc5c34)ncn2)CC1)c1ccccc1 returned FGF22 binding inactive, rRNA inh HTS -10, MLL AF4-AF9 inh -0.4, rRNA inh HTS OD600 -34 and rRNA inh HTS RFP 4.5.
`COc1ccc(Cc2c(-c3cccc(Cl)c3)nc3c(C)cc(Br)cn23)c(C)c1` gave FGF22 binding inactive, rRNA inh HTS -59, MLL AF4-AF9 inh 7.9, rRNA inh HTS OD600 -71 and rRNA inh HTS RFP -17.
Screening O=C(O)CCCC[n+]1ccccc1 returned FGF22 binding inactive, rRNA inh HTS 3, MLL AF4-AF9 inh -0.6, rRNA inh HTS OD600 6 and rRNA inh HTS RFP -1.2.
`CCCNC(=O)N1CCC2(CC1)CN(C(=O)CN1CCOCC1)[C@@H](CO)c1[nH]c3cc(OC)ccc3c12` gave FGF22 binding inactive, rRNA inh HTS 2, MLL AF4-AF9 inh 0.8, rRNA inh HTS OD600 10 and rRNA inh HTS RFP -4.5.
Screening COc1ccccc1-c1n[nH]nc1C1=CC(=O)C[C@H](c2ccc(F)cc2)C1 returned FGF22 binding inactive, rRNA inh HTS -12, MLL AF4-AF9 inh 1.7, rRNA inh HTS OD600 -20 and rRNA inh HTS RFP -0.6.
`COc1ccc2c3c([nH]c2c1)[C@@H](CO)N(C(=O)c1cnccn1)CC31CCN(C(=O)c2cnccn2)CC1` gave FGF22 binding inactive, rRNA inh HTS 3, MLL AF4-AF9 inh 1.6, rRNA inh HTS OD600 16 and rRNA inh HTS RFP -3.7.
Screening O=C(C[C@@H]1CC[C@@H]2[C@H](COC[C@@H](O)CN2C(=O)Nc2ccccc2)O1)NCCc1ccncc1 returned FGF22 binding inactive, rRNA inh HTS 4, MLL AF4-AF9 inh -1.5, rRNA inh HTS OD600 6 and rRNA inh HTS RFP -2.8.
`CNC[C@@H]1Oc2ccc(NC(=O)Nc3ccc(C(F)(F)F)cc3)cc2CC(=O)N([C@H](C)CO)C[C@H]1C` gave FGF22 binding inactive, rRNA inh HTS 1, MLL AF4-AF9 inh 2.1, rRNA inh HTS OD600 4 and rRNA inh HTS RFP 0.2.
For C[C@@H]1CN([C@H](C)CO)C(=O)Cc2cc(NS(=O)(=O)c3ccc(Cl)cc3)ccc2O[C@H]1CN(C)Cc1ccc(C(=O)Nc2ccccc2N)cc1 the results were FGF22 binding inactive, rRNA inh HTS 3, MLL AF4-AF9 inh -7.7, rRNA inh HTS OD600 -5 and rRNA inh HTS RFP 3.5.
Screening C[C@H]1CN([C@@H](C)CO)C(=O)c2cc(NC(=O)c3ccncc3)ccc2O[C@H]1CN(C)C(=O)Nc1ccc(F)cc1 returned FGF22 binding inactive, rRNA inh HTS -1, MLL AF4-AF9 inh -1.3, rRNA inh HTS OD600 -3 and rRNA inh HTS RFP -0.1.
CN(C)CCN1CCN(C2CN(Cc3cn(Cc4ccc(Cl)cc4)nn3)S(=O)(=O)C2)CC1 (stereo not given) was read as FGF22 binding inactive, rRNA inh HTS 18, MLL AF4-AF9 inh -1.7, rRNA inh HTS OD600 9 and rRNA inh HTS RFP -3.1.
For CC(=O)Nc1ccc2c(c1)C(=O)N(C)[C@@H]1CC[C@H](CC(=O)NCc3ccccc3)O[C@H]1CO2 the results were FGF22 binding inactive, rRNA inh HTS 0, MLL AF4-AF9 inh -13, rRNA inh HTS OD600 5 and rRNA inh HTS RFP -4.1.
Screening O=C(O)C[C@H]1C[C@@H]2c3cc(NC(=O)NC4CCCCC4)ccc3O[C@@H]2[C@H](CO)O1 returned FGF22 binding inactive, rRNA inh HTS 0, MLL AF4-AF9 inh -0.2, rRNA inh HTS OD600 6 and rRNA inh HTS RFP -3.3.
`CC1(c2nnnn2-c2ccc3c(c2)OCCO3)CCC(=O)N1Cc1cccc(C(F)(F)F)c1` (stereo not given) gave FGF22 binding inactive, rRNA inh HTS -3, MLL AF4-AF9 inh -1.0, rRNA inh HTS OD600 -7 and rRNA inh HTS RFP -1.5.
`C[C@H]1CN([C@@H](C)CO)C(=O)c2cc(-c3ccccc3F)cnc2O[C@@H]1CN(C)C(=O)CN(C)C` gave FGF22 binding inactive, rRNA inh HTS 1, MLL AF4-AF9 inh -3.6, rRNA inh HTS OD600 12 and rRNA inh HTS RFP -0.7.
`C[C@H](CO)N1C[C@H](C)[C@@H](CN(C)Cc2ccccn2)Oc2cc(-c3ccncc3)ccc2S1(=O)=O` gave FGF22 binding inactive, rRNA inh HTS -4, MLL AF4-AF9 inh -2.7, rRNA inh HTS OD600 -6 and rRNA inh HTS RFP -4.5.
CC1(C(=O)NCc2cccc3ccccc23)CCN1Cc1cccc2c1OCO2 (stereo not given) was read as FGF22 binding inactive, rRNA inh HTS -61, MLL AF4-AF9 inh -1.0, rRNA inh HTS OD600 -78 and rRNA inh HTS RFP -18.
`CO[C@H]1CN(C)C(=O)c2ccc(NC(=O)c3ccccc3)cc2OC[C@@H](C)NC[C@@H]1C` gave FGF22 binding inactive, rRNA inh HTS -1, MLL AF4-AF9 inh -3.1, rRNA inh HTS OD600 -12 and rRNA inh HTS RFP 1.4.
For COC(=O)C1=C(C)N(Cc2cccc(C(F)(F)F)c2)C(=NCc2cc(OC)c(OC)c(OC)c2)NC1c1cccc(Cl)c1 (stereo not given) the results were rRNA inh HTS -45, MLL AF4-AF9 inh 11, rRNA inh HTS OD600 -76 and rRNA inh HTS RFP -11.

A section taken from the entries so far, as a working copy:
`CC1(c2nnnn2-c2ccc3c(c2)OCCO3)CCC(=O)N1Cc1cccc(C(F)(F)F)c1` (stereo not given) gave FGF22 binding inactive, rRNA inh HTS -3, MLL AF4-AF9 inh -1.0, rRNA inh HTS OD600 -7 and rRNA inh HTS RFP -1.5.
`C[C@H]1CN([C@@H](C)CO)C(=O)c2cc(-c3ccccc3F)cnc2O[C@@H]1CN(C)C(=O)CN(C)C` gave FGF22 binding inactive, rRNA inh HTS 1, MLL AF4-AF9 inh -3.6, rRNA inh HTS OD600 12 and rRNA inh HTS RFP -0.7.
`C[C@H](CO)N1C[C@H](C)[C@@H](CN(C)Cc2ccccn2)Oc2cc(-c3ccncc3)ccc2S1(=O)=O` gave FGF22 binding inactive, rRNA inh HTS -4, MLL AF4-AF9 inh -2.7, rRNA inh HTS OD600 -6 and rRNA inh HTS RFP -4.5.
CC1(C(=O)NCc2cccc3ccccc23)CCN1Cc1cccc2c1OCO2 (stereo not given) was read as FGF22 binding inactive, rRNA inh HTS -61, MLL AF4-AF9 inh -1.0, rRNA inh HTS OD600 -78 and rRNA inh HTS RFP -18.
`CO[C@H]1CN(C)C(=O)c2ccc(NC(=O)c3ccccc3)cc2OC[C@@H](C)NC[C@@H]1C` gave FGF22 binding inactive, rRNA inh HTS -1, MLL AF4-AF9 inh -3.1, rRNA inh HTS OD600 -12 and rRNA inh HTS RFP 1.4.
For COC(=O)C1=C(C)N(Cc2cccc(C(F)(F)F)c2)C(=NCc2cc(OC)c(OC)c(OC)c2)NC1c1cccc(Cl)c1 (stereo not given) the results were rRNA inh HTS -45, MLL AF4-AF9 inh 11, rRNA inh HTS OD600 -76 and rRNA inh HTS RFP -11.
